Vaccinia inh: blocks a specific stage of Vaccinia orthopoxvirus infection; AID 1053133; 0.01% of 89,000 active; Vaccinia-infected cells, mCherry/Venus stage reporter fluorescence; stronger effect = lower value; some inactives read as strong as hits; activity change (mCherry), % (no concentration beside the values);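 active = mCherry past -33% and 40 or more points under the early reporter, replicates agreeing; inconclusive = past -33% without that gap or agreement; tested in A549 cells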;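 note: scaled between vehicle wells and reference inhibitor wells; 23 nL library stock went into each well; one replicate is shown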
Vaccinia inh Venus: second read-out of Vaccinia inh, no call of its own (marks repeat the call); activity change (Venus), %; measured here: Venus reporter, other viral stage;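 negative = less Venus signal; first of two replicates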
* hit, by the source's call; ? = inconclusive; . = no result given; & = joins results of further samples. These rows are one share of the data. The share of hits here may be higher or lower than overall.

structure	Vaccinia inh	Vaccinia inh Venus
CO[C@@H]1CN(C)C(=O)c2cc(NC(C)=O)ccc2OC[C@H](C)N(Cc2cncnc2)C[C@@H]1C	5	9
O=C(CC1CC1)N[C@H]1CC[C@H](CCNS(=O)(=O)c2ccc(F)cc2)O[C@H]1CO	13	0
Cc1ccccc1-c1ccc2c(c1)O[C@@H](CN(C)C(=O)c1ccccn1)[C@@H](C)CN([C@H](C)CO)S2(=O)=O	-16	-14
Cc1noc(C)c1S(=O)(=O)Nc1cccc2c1O[C@H](CN(C)Cc1ccc3c(c1)OCO3)[C@H](C)CN([C@H](C)CO)C2=O	4	3
O=C(C[C@H]1C=C[C@H](NC(=O)Nc2cccc(F)c2)[C@H](CO)O1)NCC1CC1	-2	-4
COc1ccccc1S(=O)(=O)N1CC[C@H]2[C@H](CO)Nc3ccc(-c4ccc(C#N)cc4)cc3[C@H]21	-26	-18
COc1ccccc1CN1[C@H](CO)[C@@H]2c3ccccc3N(C(=O)C3CC3)C[C@@H]21	-8	6
C[C@@H]1CN([C@@H](C)CO)C(=O)c2cccc(NC(=O)c3cnccn3)c2O[C@H]1CN(C)C	12	6
C[C@@H]1CN([C@H](C)CO)S(=O)(=O)c2ccc(-c3cncnc3)cc2O[C@H]1CN(C)C(=O)CC1CC1	19	14
N#C[C@@H]1[C@@H](c2ccc(-c3ccccc3F)cc2)[C@H](CO)N1C(=O)Cc1ccccc1	?	.
O=C(Cc1ccccn1)N1CC(=O)N2[C@H](CO)[C@H](c3ccc(C#CC4CCCC4)cc3)[C@H]2C1	-30	-21
CC(C)C(=O)Nc1ccc2c(c1)C(=O)N(C)[C@@H]1CC[C@@H](CC(=O)NCc3ccc(F)cc3)O[C@H]1CO2	10	10
Cc1noc(C)c1NC(=O)Nc1ccc2c(c1)C(=O)N([C@H](C)CO)C[C@@H](C)[C@H](CN(C)Cc1ccc(C(=O)O)cc1)O2	20	10
O=C(NCC[C@H]1CC[C@@H](NC(=O)C2CC2)[C@H](CO)O1)c1cc(Cl)cc(Cl)c1	-1	4
CCCNC(=O)Nc1ccc2c(c1)C(=O)N(C)C[C@@H](OC)[C@H](C)CN(C(=O)C1CCCCC1)[C@@H](C)CO2	6	4
COc1ccc([Si](C)(C)[C@H]2[C@H](CCO)O[C@@]3(C(=O)N(Cc4ccc(N5CCOC5=O)cc4)c4ccccc43)[C@@H]2C)cc1	?	.
COc1ccc(CN(C)C[C@H]2OCCCC[C@H](C)Oc3ccc(NS(=O)(=O)c4ccccc4)cc3C(=O)N([C@H](C)CO)C[C@@H]2C)cc1	-33	-21
O=C(C[C@@H]1C[C@@H]2c3cc(NS(=O)(=O)c4ccc(F)cc4)ccc3O[C@@H]2[C@H](CO)O1)NCc1cccc(F)c1	-12	-5
CCC(=O)N(C)C[C@H]1Oc2ncc(C#Cc3cccnc3)cc2C(=O)N([C@@H](C)CO)C[C@H]1C	16	-4
CC(C)NC(=O)N(C)C[C@H]1OCCCC[C@H](C)Oc2ccc(NC(=O)Nc3cccc4ccccc34)cc2C(=O)N([C@H](C)CO)C[C@@H]1C	23	19
COc1cccc(CN2[C@H](CO)[C@H]3c4ccccc4N(C(=O)c4ccncc4)C[C@H]32)c1	13	10
COc1cccc(NC(=O)Nc2ccc3c(c2)C(=O)N(C)C[C@H](OC)[C@@H](C)CN(CC2CC2)[C@@H](C)CO3)c1	-3	-7
CC(C)NC(=O)N1CC2(C1)[C@@H](c1ccccc1)[C@@H](CO)N2C(=O)C1CCOCC1	7	5
CC(C)C#Cc1ccc2c(c1)O[C@H](CN(C)C(=O)NC(C)C)[C@H](C)CN([C@H](C)CO)S2(=O)=O	-1	3
COc1ccc2c3c([nH]c2c1)[C@H](CO)N(C(=O)c1ccccc1)CC31CN(C(=O)c2cccc(F)c2)C1	-21	-19
C[C@@H]1CN([C@H](C)CO)C(=O)Cc2cc(NC(=O)Cn3cnnn3)ccc2O[C@@H]1CN(C)C(=O)Nc1ccc2c(c1)OCO2	17	17
C[C@@H]1CN([C@H](C)CO)C(=O)c2cc(NS(=O)(=O)c3ccc(Cl)cc3)ccc2O[C@H]1CN(C)CC1CCCCC1	1	0
O=C(C[C@H]1CC[C@H]2[C@@H](COC[C@@H](O)CN2S(=O)(=O)c2cccc(Cl)c2)O1)N1CCOCC1	3	0
Cc1cccc(S(=O)(=O)N(C)C[C@@H]2OCc3ccccc3-c3ccccc3C(=O)N([C@H](C)CO)C[C@H]2C)c1	34	27
C[C@@H]1CN([C@@H](C)CO)C(=O)c2cc(NC(=O)CCN3CCOCC3)ccc2O[C@@H]1CN(C)C(=O)Nc1ccc2c(c1)OCO2	17	8
CCC(=O)N1[C@H](CO)[C@@H](c2ccccc2)C12CN(C(=O)Nc1ccccc1F)C2	-8	-2
C[C@H]1CN([C@@H](C)CO)C(=O)Cc2cc(NC(=O)Nc3ccc(F)cc3)ccc2O[C@@H]1CN(C)S(=O)(=O)c1cccs1	5	5
O=C(Cc1ccccc1)N1CC[C@@H]2[C@H](CO)Nc3ccc(C4=CCCCC4)cc3[C@@H]21	-2	-4
CN(C)C(=O)c1ccc(-c2ccc(C3[C@H]4CNC[C@@H]3N4C(=O)Nc3cc(F)ccc3F)cc2)cc1 (stereo not given in full)	15	3
C[C@@H]1CN([C@H](C)CO)C(=O)Cc2cc(NC(=O)Nc3ccc(C(F)(F)F)cc3)ccc2O[C@H]1CN(C)S(=O)(=O)c1ccccc1	-12	1
CC(C)NC(=O)Nc1ccc2c(c1)CC(=O)N([C@@H](C)CO)C[C@H](C)[C@H](CN(C)Cc1ccc(Cl)c(Cl)c1)O2	?	.
O=C(C[C@@H]1CC[C@H]2[C@@H](COC[C@@H](O)CN2C(=O)Cc2ccccc2)O1)NC1CCC1	9	20
CC(=O)Nc1ccc2c(c1)C(=O)N(C)[C@H]1CC[C@H](CC(=O)NCCCN3CCOCC3)O[C@H]1CO2	7	2
CO[C@H]1CC[C@H]2CCN(C)C(=O)C[C@H](c3ccccc3)CN(C)C(=O)c3cccc(C#N)c3OC[C@H]1O2	21	12
CO[C@@H]1CN(C)C(=O)c2ccc(NC(=O)c3nc4ccccc4s3)cc2OC[C@@H](C)N(Cc2ccncc2)C[C@@H]1C	?	.
Cc1cccc(S(=O)(=O)N2C[C@@H]3[C@H](c4ccccc42)[C@H](CO)N3CC2CCOCC2)c1	-8	7
Cc1ccccc1S(=O)(=O)N1C[C@H](O)COC[C@H]2O[C@H](CC(=O)N3CCC(Cc4ccccc4)CC3)CC[C@@H]21	-30	-19
COCC(=O)N1[C@H](C#N)[C@H](c2ccccc2-c2ccccc2F)[C@H]1CO	8	0
C[C@@H]1CN([C@@H](C)CO)C(=O)Cc2cc(NC(=O)C3CC3)ccc2O[C@@H]1CN(C)Cc1ccccc1	11	9
CC(C)NC(=O)N(C)C[C@H]1Oc2ccc(NS(=O)(=O)c3cn(C)cn3)cc2C(=O)N([C@@H](C)CO)C[C@H]1C	9	6
C[C@H](CO)N1C[C@H](C)[C@@H](CN(C)C(=O)NC2CCCCC2)Oc2ccc(NC(=O)c3ccncc3)cc2C1=O	17	8
C[C@H](CO)N1C[C@H](C)[C@H](CN(C)Cc2ccc3c(c2)OCO3)Oc2ccc(NC(=O)Nc3ccccc3)cc2CC1=O	-12	-12
C[C@@H]1CN([C@H](C)CO)C(=O)c2cc(NC(=O)CCCN(C)C)ccc2O[C@H]1CN(C)S(=O)(=O)c1ccc(F)cc1	6	6
C[C@H](CO)N1C[C@H](C)[C@H](CN(C)S(=O)(=O)CC(F)(F)F)OCc2ccccc2-c2ccccc2C1=O	-6	-8
O=C(C[C@@H]1CC[C@@H]2[C@H](COC[C@H](O)CN2C(=O)Nc2cccc(Cl)c2)O1)NCC1CCCCC1	-31	-21
COc1cccc(-c2ccc3c(c2)[C@H]2[C@H](CCN2C(=O)Cc2ccncc2)[C@H](CO)N3)c1	-10	4
CCC(=O)N(C)C[C@@H]1Oc2ncc(C#CCc3ccccc3)cc2C(=O)N([C@H](C)CO)C[C@H]1C	19	9
C[C@H]1CN([C@@H](C)CO)S(=O)(=O)c2ccc(C#Cc3ccccn3)cc2O[C@H]1CN(C)Cc1ccc(F)cc1	?	-13
O=C(C[C@H]1CC[C@H]2[C@@H](COC[C@@H](O)CN2Cc2ccccc2F)O1)N[C@H]1CCN(Cc2ccccc2)C1	-32	-20
C[C@@H]1CN([C@@H](C)CO)C(=O)c2cc(C#CC3CCCCC3)cnc2O[C@H]1CN(C)S(=O)(=O)c1ccccc1	?	.
C[C@@H]1CCCCO[C@H](CN(C)S(=O)(=O)c2ccccc2)[C@@H](C)CN([C@H](C)CO)C(=O)c2cc(NS(=O)(=O)c3ccc(F)cc3)ccc2O1	-3	-5
CN1c2ccc(C#Cc3cccnc3)cc2[C@@H]2[C@@H](CCN2C(=O)C2CCC2)[C@@H]1CO	-25	24
O=C(C[C@H]1CC[C@@H](NC(=O)Nc2ccc3c(c2)OCO3)[C@H](CO)O1)NCc1ccc(F)cc1	10	7
C[C@H]1CN([C@@H](C)CO)S(=O)(=O)c2ccc(C#CCN(C)C)cc2O[C@@H]1CN(C)C(=O)C1CCCCC1	-13	-2
COC(=O)C[C@H]1C[C@@H]2c3cc(NC(=O)NC4CCCC4)ccc3O[C@@H]2[C@@H](CO)O1	-1	1

Carrying on.
Every second line gives: Vaccinia inh, Vaccinia inh Venus
O=C(NCc1ccccc1)[C@H]1[C@H](CO)[C@H]2Cn3c(ccc(/C=C/c4ccccc4)c3=O)[C@@H]1N2CC1CC1
 : ?, .
Cc1noc(C)c1S(=O)(=O)Nc1ccc2c(c1)C(=O)N([C@H](C)CO)C[C@H](C)[C@H](CN(C)C(=O)c1ccccc1)OCCCC[C@H](C)O2
 : 32, 8
COc1ccc(CN(C)C[C@H]2Oc3c(NC(=O)NC4CCCCC4)cccc3C(=O)N([C@H](C)CO)C[C@H]2C)cc1
 : -9, -3
C[C@@H]1CN([C@@H](C)CO)C(=O)c2cccc(NS(=O)(=O)c3cn(C)cn3)c2O[C@@H]1CN(C)S(=O)(=O)c1ccc(F)cc1
 : 9, 7
C[C@H]1CN([C@@H](C)CO)C(=O)c2cc(NC(=O)CCN3CCOCC3)ccc2O[C@@H]1CN(C)Cc1ccc(C(F)(F)F)cc1
 : -5, -2
C[C@@H]1CN([C@H](C)CO)C(=O)CCCn2nncc2CO[C@@H]1CN(C)C(=O)Oc1cccc2ccccc12
 : -2&-4, 3&-3
O=C(NCC[C@@H]1CC[C@@H](NC(=O)c2cnccn2)[C@@H](CO)O1)Nc1ccc(Cl)cc1
 : 9, 9
C[C@H](CO)N1C[C@H](C)[C@@H](CN(C)Cc2ccncc2)OCCCC[C@H](C)Oc2ccc(NS(=O)(=O)c3ccc(Cl)cc3)cc2C1=O
 : -21, -18
O=C(C[C@H]1CC[C@@H]2[C@H](COC[C@H](O)CN2S(=O)(=O)c2ccccc2)O1)N1CCOCC1
 : 23, 18
C[C@@H]1CCCCO[C@@H](CN(C)C(=O)NC2CCCCC2)[C@H](C)CN([C@H](C)CO)C(=O)c2cc(NC(=O)Nc3cccc4ccccc34)ccc2O1
 : -4, 6
CN1c2ccc(-c3cccc(C#N)c3)cc2[C@H]2[C@H](CCN2C(=O)C2CC2)[C@H]1CO
 : -28, -19
C[C@H]1CN([C@@H](C)CO)S(=O)(=O)c2ccc(Br)cc2O[C@H]1CN(C)C(=O)Cc1ccncc1
 : 9, 9
C[C@@H]1CN([C@@H](C)CO)C(=O)Cc2cc(NC(=O)Nc3ccc(C(F)(F)F)cc3)ccc2O[C@@H]1CN(C)S(=O)(=O)c1cccs1
 : ?, .
O=C(Nc1ccc(C(F)(F)F)cc1)Nc1ccc2c(c1)[C@@H]1C[C@H](CC(=O)N3CCc4ccccc4C3)O[C@H](CO)[C@@H]1O2
 : ?, .
C[C@@H]1CN([C@@H](C)CO)C(=O)c2cccc(NC(=O)Nc3ccc4c(c3)OCO4)c2O[C@@H]1CN(C)S(C)(=O)=O
 : 16, 5

Full records from above. Screens in order: Vaccinia inh	Vaccinia inh Venus
`C[C@@H]1CN([C@H](C)CO)C(=O)Cc2cc(NC(=O)Nc3ccc(C(F)(F)F)cc3)ccc2O[C@H]1CN(C)S(=O)(=O)c1ccccc1` across the screens: -12	1
`CC(C)NC(=O)N(C)C[C@H]1Oc2ccc(NS(=O)(=O)c3cn(C)cn3)cc2C(=O)N([C@@H](C)CO)C[C@H]1C` across the screens: 9	6
`N#C[C@@H]1[C@@H](c2ccc(-c3ccccc3F)cc2)[C@H](CO)N1C(=O)Cc1ccccc1` across the screens: ?	.
`C[C@@H]1CCCCO[C@@H](CN(C)C(=O)NC2CCCCC2)[C@H](C)CN([C@H](C)CO)C(=O)c2cc(NC(=O)Nc3cccc4ccccc34)ccc2O1` across the screens: -4	6

Some of the entries so far, as labelled records.
C[C@@H]1CN([C@H](C)CO)C(=O)CCCn2nncc2CO[C@@H]1CN(C)C(=O)Oc1cccc2ccccc12
  Vaccinia inh = -2&-4	Vaccinia inh Venus = 3&-3
O=C(NCC[C@@H]1CC[C@@H](NC(=O)c2cnccn2)[C@@H](CO)O1)Nc1ccc(Cl)cc1
  Vaccinia inh = 9	Vaccinia inh Venus = 9

(next part)
Every second line gives: Vaccinia inh, Vaccinia inh Venus
C[C@@H]1CCCCO[C@H](CN(C)C(=O)NC2CCCCC2)[C@@H](C)CN([C@H](C)CO)C(=O)c2cc(N(C)C)ccc2O1
 : -2, -1
Cc1noc(C)c1NC(=O)Nc1cccc2c1O[C@@H](CN(C)S(C)(=O)=O)[C@H](C)CN([C@@H](C)CO)C2=O
 : 29, 10
N#C[C@H]1[C@@H](c2ccccc2/C=C/c2ccccc2)[C@@H](CO)N1S(=O)(=O)c1ccccc1
 : -17, -15
COCC#Cc1cnc2c(c1)C(=O)N([C@H](C)CO)C[C@H](C)[C@@H](CN(C)Cc1ccc3c(c1)OCO3)O2
 : 1, 5

Screens from PubChem.
